Cruzain noTriton: cruzain (T. cruzi) inhibition without detergent; P25779; purified cruzain, Z-FR-AMC fluorescence, no detergent; Potency, µM, without a hit: max response, negative = inhibition, hits mostly inhibitors; 200,000 compounds, 2.3% hits; AID 1476;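 note: plate controls were enzyme without inhibitor for no effect and buffer without enzyme for full effect; nearly all actives have a fitted effect of over 40% in size; top concentration of the series not given in the record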
Target sequence (P25779 123-467 limits assumed): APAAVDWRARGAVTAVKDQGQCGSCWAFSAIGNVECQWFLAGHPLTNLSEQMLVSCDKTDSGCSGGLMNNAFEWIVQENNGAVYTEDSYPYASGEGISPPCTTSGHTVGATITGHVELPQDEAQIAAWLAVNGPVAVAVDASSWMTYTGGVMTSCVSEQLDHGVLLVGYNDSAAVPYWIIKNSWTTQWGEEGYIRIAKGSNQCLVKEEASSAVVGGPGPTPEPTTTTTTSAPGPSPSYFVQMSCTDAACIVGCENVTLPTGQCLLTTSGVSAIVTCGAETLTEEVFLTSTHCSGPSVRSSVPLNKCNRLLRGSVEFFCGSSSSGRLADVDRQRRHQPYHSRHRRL
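Purified cruzain at 1.5 nM, pre-incubated 15 min with compound at room temperature in 100 mM sodium acetate pH 5.5, 5 mM DTT, 0.00005% Triton X-100. Reaction started with 2 uM Z-FR-AMC; AMC fluorescence increase over 60 s gives rate.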
Cruzain Triton: cruzain (T. cruzi) inhibition with detergent. P25779. purified cruzain, Z-FR-AMC fluorescence, 0.01% Triton. Potency, µM, inactives show max response, negative = inhibition, most hits filed as inhibitors. 200,000 compounds, 0.43% hits. AID 1478;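 note: plate controls were neutral wells for no effect and buffer without enzyme for full effect; nearly all actives have a fitted effect of over 40% in size; top concentration of the series not given in the record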
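Detergent-containing run (0.01% Triton X-100) in acetate buffer pH 5.5 with 5 mM DTT: enzyme at 1.5 nM final, 15 min compound preincubation at room temperature, then 2 uM Z-FR-AMC substrate. Activity taken as 60 s fluorescence increase at 360/450 nm.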
Marburg entry inh: Marburg virus entry inhibition; Marburg virus pseudotyped entry inhibition, cell reporter; control for the full effect not named in the record; about a third of the inactives were read at about 46 µM; Potency, µM (highest dose often 37.8 µM), for the others: top-dose activity change, negative = inhibition, hits mostly inhibitors; 300,000 compounds, 1.8% hits; AID 540276; active = well fitted inhibition curve with a large enough effect; inconclusive = small, poorly fitted or top-dose-only effect, or effect the other way; inactive = flat fitted curve, though single readings scatter; tested in HEK293 cells; about a fifth of its hits are not listed in these tables; note: % is set by controls: 0 for no effect and ±100 for the full control effect; luciferase read-out
LASV entry inh: blocks Lassa virus binding to or entry into cells | Lassa virus pseudotype entry inhibition, cell reporter; control for the full effect not named in the record | Potency, µM (top dose mostly 37.9 µM), inactives show at the highest dose activity change, negative = inhibition, usual class: inhibitors | 300,000 compounds, 1.2% hits | AID 540256; active means well fitted inhibition curve with a large enough effect; inconclusive means small, poorly fitted or top-dose-only effect, or effect the other way; inactive means flat fitted curve, though single readings scatter; tested in HEK293 cells; note: % is set by controls: 0 for no effect and ±100 for the full control effect; nearly all actives have a fitted effect of over 50% in size; luciferase read-out
RE007 growth inh: less growth of the S. pombe RE007 Vpr strain. S. pombe RE007 Vpr strain, BacTiter-Glo ATP luminescence, 24 h; control for the full effect not named in the record. Potency, µM (series often up to 92.2 µM), without a hit: at the highest dose activity change, negative = less growth. 360,000 compounds, 0.21% hits. AID 651644; active = well fitted falling curve with a large enough effect; inconclusive = small, poorly fitted or top-dose-only effect; inactive = no such curve, though single readings can be large or run the other way;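 note: % is set by controls: 0 for no effect and ±100 for the full control effect; nearly all actives have a fitted effect of over 50% in size; the assay follows cell death caused by Vpr and the record does not say whether a fall means rescue or toxicity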
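Fission yeast strain RE007, carrying one chromosomally integrated HIV-1 vpr copy, was seeded at OD 0.01 in PMG+AL medium with 23 nL pinned compound. After 24 h at 30 °C and 99% humidity, viability was read by BacTiter-Glo luminescence.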
2A StopGo: lowers the luciferase signal of an FMDV 2A StopGo reporter. 410,000 compounds, 1.2% hits. human cells with a luciferase reporter of 2A StopGo recoding; control for the full effect not named in the record. AID 1159524. Potency, µM (top dose mostly 57.9 µM), without a hit: at the top dose signal change, negative = less light; active = well fitted falling curve with a large enough effect; inconclusive = small, poorly fitted or top-dose-only effect; inactive = no such curve, though single readings can be large or run the other way; tested in HEK293T cells; note: % is set by controls: 0 for no effect and ±100 for the full control effect; nearly all actives have a fitted effect of over 45% in size; luciferase light after 4 h
NS1 inh: inhibitors of influenza NS1 protein function; S. cerevisiae slowed by influenza A NS1, growth recovery by OD600; 270,000 compounds, 0.4% hits; Potency, µM (titrated, usually from 46.1 µM), for inactives: at the highest dose activity, positive = more growth; active means well fitted rising curve with a large enough effect; inconclusive means small, poorly fitted or top-dose-only effect; inactive means no such curve, though single readings can be large or run the other way; note: nearly all actives have a fitted effect of over 50% in size
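Recovery from NS1-induced slow growth read by OD600 in budding yeast switched to galactose assay medium (pH 6.0, -URA) at 1:100 dilution. Compound 23 nl per well; the matching strain lacking NS1 serves as control.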
SARS PLpro yeast: SARS-CoV PLP inhibition in yeast; S. cerevisiae expressing SARS-CoV PLpro, growth rescue; control for the full effect not named in the record; 330,000 compounds, 0.19% hits; Potency, µM (series often up to 32.9 µM), inactives show at the top dose activity, positive = growth rescue; active means well fitted rising curve with a large enough effect; inconclusive means small, poorly fitted or top-dose-only effect; inactive means no such curve, though single readings can be large or run the other way; note: 0% is about no effect; nearly all actives have a fitted effect of over 55% in size; growth read by luminescence after 48 h
An asterisk follows results filed as active; ? = inconclusive; . = no result given; & = joins results of further samples; [ ] = remark or other dose. Unless noted, calls come from the whole dose curve; as a rule, active = well fitted curve in the direction sought with a large enough effect; inconclusive = small, poorly fitted or top-dose-only effect, or another doubt; inactive = no such curve, though single readings can be large; an effect the other way counts as inactive or inconclusive. Potency is the fitted concentration of half-maximal effect.

SMILES | Cruzain noTriton | Cruzain Triton | Marburg entry inh | LASV entry inh | RE007 growth inh | 2A StopGo | NS1 inh | SARS PLpro yeast
CCOc1ccc(-c2noc(CCC(N)=O)n2)cc1OCC | -3% | 1.4% | -9% | 1% | 1% | 21% | -2% | 1%
CCN(CC)S(=O)(=O)c1cccc(C(=O)OCC(=O)Nc2ccc3c(c2)c2ccccc2n3CC)c1 | 7.9µM* | -4.2% | 19% | -23% | 7% | -15% | 15% | 3%
CCCC(=O)Nc1cc(-c2nnc(OC)c3ccccc23)ccc1N1CCOCC1 | . | . | -12%&-12% | -3% | -1% | -18% | -11% | .
Cc1ccc(S(=O)(=O)NCC(=O)NC2CCCC2)cc1 | -9% | -1.9% | 20% | -34%[14.3 µM] | 9% | -7% | 3% | 5%
Cc1noc(NS(=O)(=O)c2ccc(N/C=C\C(=O)c3ccc4c(c3)OCO4)cc2)c1C | -5% | -9.0% | ? | -2% | ? | 68%[activator] | -219% | -33%
CCOC(=O)Cc1csc(NC(=O)Cc2cccs2)n1 | -15% | 1.3% | -8% | -16% | -16%[3.69 µM] | 6% | 6% | -7%
CCCSc1ncnc2sc(C)c(C)c12 | . | . | 6% | 2% | -1% | -2% | 3% | 0%
CC1CCCC(C)N1CCCNC(=O)c1csc2c1CCCCC2 (stereo unspecified) | . | . | . | . | -13% | -15% | 7% | 1%
Cc1onc(-c2ccccc2Cl)c1NC(=O)NCc1cccs1 | . | . | -1%[46.1 µM] | 7% | -12% | 2% | 2% | 1%
Cc1ccc(NC(=O)Nc2ncnc3nc[nH]c23)cc1 | . | . | . | . | -3% | 13% | 7% | -7%
CC1(C)COC(c2cccc(C3=NC(C)(C)CO3)n2)=N1 | -10% | 2.1% | ? | 11% | 7% | -10% | 14% | 8%
COC(=O)C1=C(C)N(CC2CC2)C(=NCc2cccc(Cl)c2)N[C@H]1c1ccccc1 | . | . | . | . | -12% | -25% | 4%&-2% | 5%&0%
COC(=O)c1cccc(S(=O)(=O)N2CCC(NC(=O)Nc3cccc(F)c3)CC2)c1 | -2% | 1.1% | 4% | -3% | 0% | -10% | -3% | -3%
CCC1(C)Cc2[nH]c(=O)c(C#N)cc2CO1 (stereo unspecified) | . | . | -3% | -3%[46.1 µM] | -19% | -12% | . | -1%
Cc1ccc(CN2CCNC(=O)C2CC(=O)N(Cc2c(C)nn(C)c2C)C2CC2)o1 (stereo unspecified) | . | . | -4%[46.1 µM] | 3% | 7% | 0% | -1% | 0%
CC(NC(=O)c1cccnc1Sc1ccccc1)c1ccc(S(N)(=O)=O)cc1 (stereo unspecified) | . | . | 9% | 15% | 7% | -6% | 20% | -4%
NS(=O)(=O)c1ccc(CCNC(=O)COC(=O)/C=C/c2ccccc2Cl)cc1 | . | . | -4%[46.1 µM] | 11% | 13% | -16% | . | 0%
C#CCNC(=O)C1=C[C@@H](c2csc3ccccc23)[C@H](CCCO)[C@@H](OCC)O1 | . | . | . | . | -5% | 0% | -1% | -1%
CCOc1ccc(-c2nc(CSCC(=O)NC3CC3)c(C)o2)cc1 | . | . | . | . | -5% | 19% | -4% | -5%
Cc1nc(C)n(CC(O)COc2ccc3c(c2)CCC3)n1 (stereo unspecified) | -1% | 2.3% | 2% | -3% | -2% | . | 4% | -2%
Cc1cc(NC(NC(=O)c2ccco2)(C(F)(F)F)C(F)(F)F)no1 | -2% | 10% | 1% | -5% | 7% | 1% | -7% | -2%
COc1ccc(OC)c2[nH]c(=O)c(CCNC(=O)CC(C)C)cc12 | -3% | 2.2% | 23% | 15% | 23% | -7% | -8% | -1%
CS(=O)(=O)NCCc1csc2nc(-c3ccccc3)nn12 | -18% | -0.6% | . | -14%[46.1 µM] | . | -9% | . | .
COc1cc(-c2nnc(SCc3ccccc3Cl)o2)cc(OC)c1OC | ? | 3.5% | -21% | ? | 7% | -18% | -46% | -10%
COc1ccc(NC(=O)C(=O)NCCC2CCCCN2S(=O)(=O)c2ccccc2)cc1 (stereo unspecified) | . | . | ? | ? | -14% | -15% | . | -8%
O=C(N/N=C\c1ccc(-c2ccc(Cl)c(Cl)c2)o1)C(=O)N1CCCC1 | 2% | -0.6% | 14% | 15% | 4% | 0% | 18% | -1%
Cc1c(NC2=C(Cl)C(=O)N(c3ccccc3Cl)C2=O)c(=O)n(-c2ccccc2)n1C | -7% | -8.8% | 8% | 3% | . | 4% | 5% | 13%
O=[N+]([O-])c1cccc(S(=O)(=O)N2CCCC2)c1 | -8% | 5.7% | ? | 10% | -16% | -13% | 6% | -9%
COc1cc(OC)c2ccc(=O)oc2c1C(CC(=O)N1CCCC(C)C1)c1ccc2c(c1)OCO2 (stereo unspecified) | . | . | . | . | -25% | 20% | 7% | -2%
Cc1cc(/C=C2/C(=N)N3C(c4ccccc4)=CSC3=NC2=O)c(C)n1-c1ccccc1 | 4µM* | 0.6% | 12% | 16% | -10% | 1% | 14% | 6%
Cc1ccc(NC(=O)C2CCCN2C(=O)NC2CCCCC2)cc1 (stereo unspecified) | . | . | . | . | 3% | -2% | 0% | 20%
COc1ccc(-c2nc3ccccc3nc2-c2ccc(OC)cc2)cc1 | . | . | . | . | -7% | -21% | -15% | 6%
CCOC(=O)CSCc1nc(-c2ccc(Cl)cc2)oc1C | 2% | 0.5% | 1% | 1% | 10% | 0% | -59% | 9%
COc1ccc(OCCCC(=O)OCC(=O)c2ccc3c(c2)NC(=O)CO3)cc1 | . | . | 16%[46.1 µM] | 8% | -4% | -17% | . | -7%
COC(=O)C(C)N(C#N)c1nc(C)nc(C)n1 (stereo unspecified) | 2% | 4.3% | 14% | 5% | -7% | 11% | 3% | 0%
O=c1[nH]nc2n1CCCCC2 | -7% | 2.0% | 7%&7% | 5% | 1% | -7% | 1% | 4%
N=C(N)SCc1nc2ccccn2c1Br | -4% | -4.4% | ? | -10% | -1% | ? | 1% | 2%
Cc1ccc(S(=O)(=O)N2CCOCC2)cc1NC(=O)C1=NN(c2ccccc2)C(=O)CC1 | . | . | . | . | -3% | -6% | -12% | -6%
CC1=C(c2ccc(C)cc2)S(=O)(=O)NC1=NCc1cccc(F)c1 | -2% | -7.8% | -29%[46.1 µM] | -18%[46.1 µM] | . | 63%[activator] | . | .
COc1ccc(N(CC(=O)N2CCC(C(N)=O)CC2)S(=O)(=O)c2ccccc2)cc1 | . | . | 4%[46.1 µM] | 7% | -11% | 7% | 2% | -1%
CC(=O)N[C@@H](C)C(=O)N1CCC(n2nccc2NC(=O)CCCc2ccccc2)CC1 | . | . | . | . | -3% | 19% | 5% | 1%
O=[N+]([O-])c1ccc(O)c(NC(=S)Nc2ccccc2)c1 | -5% | -14% | 16% | 2% | ? | 43%[activator] | -10% | -3%
Cc1nc2ccc(NC(=O)N3CCOCC3)cc2s1 | 7% | 1.1% | 12%[46.1 µM] | 20% | 28% | 18% | 11% | -1%
O=C(COc1ccc2c(c1)oc(=O)c1ccccc12)N[C@@H](Cc1ccccc1)C(=O)O | . | . | . | . | -1% | -24% | 16% | 9%
Cc1ccc(C2NC(=O)c3ccccc3N2)c(C)c1 (stereo unspecified) | . | . | ? | ? | 8% | -21% | . | .
Cc1cc(C)nc(N2CCCC(C(=O)Nc3cccc(Cl)c3)C2)n1 (stereo unspecified) | . | . | -1%[46.1 µM] | -18%[46.1 µM] | 0% | -11% | 8% | 0%
COc1ccc(N2C(=S)NC3N2C(=S)NC3(C)c2ccccc2)cc1 (stereo unspecified) | . | . | 23%[46.1 µM] | -9% | 33% | 52%[activator] | . | 0%
CCNC(=O)c1ccc(-n2c(-c3ccccc3)cc3c2CCCCC3)cc1 | -21% | -5.1% | . | -21%[46.1 µM] | . | 21% | . | .
Cc1cc(N=Nc2ccccc2C(=O)O)c(C)c(C)c1O | . | . | . | . | -8% | ? | -6% | 4%
COc1ccc(/C=C/C(=O)Nc2nc3n(n2)C(c2ccccc2)C=C(c2ccccc2)N3)cc1 (stereo unspecified) | ? | -6.7% | ? | -13%[46.1 µM] | . | -13% | . | .

Next section:
SMILES | Cruzain noTriton | Cruzain Triton | Marburg entry inh | LASV entry inh | RE007 growth inh | 2A StopGo | NS1 inh | SARS PLpro yeast
COc1ccccc1NC(=O)/C(=C/c1cccs1)NC(=O)c1ccco1 | . | . | 0%[46.1 µM] | 23% | 1% | -4% | -8% | 0%
Cc1c(/C=N/NC(=O)C2(O)c3ccccc3-c3ccccc32)cnn1C | 13% | 0.6% | -1% | -1% | . | 0% | 24% | -3%
O=C(O)c1cn(Cc2ccccc2)nc1-c1cccnc1 | . | . | . | . | 8% | -8% | 1% | 1%
CCOCCCNC(=O)c1cn(CC(C)C)c(=O)c2cc(OC)c(OC)cc12 | -4% | 5.0% | . | . | -8% | -5% | -7% | 1%
CCOCCCn1c(SCC(=O)Nc2ccc(F)cc2)nc2c(sc3ccccc32)c1=O | 6% | 2.0% | . | 0%[46.1 µM] | . | -12% | . | .
CC1=NN(C(=O)COc2ccccc2)C(O)(c2cccnc2)C1 (stereo unspecified) | . | . | . | . | 6% | -2% | 5% | 0%
O=C(c1cccc(C(F)(F)F)c1)C1CCCN(C(=O)Cn2cncn2)C1 (stereo unspecified) | . | . | . | . | -4% | -14% | 10% | 3%
CC(C)(C)C1=NN(c2ccc([N+](=O)[O-])cc2)C(c2ccccc2)C1 (stereo unspecified) | . | . | ? | ? | -11% | -7% | . | -22%
CCC1C(=O)Nc2nc(-c3ccccc3)c(-c3ccccc3)n2N=C1C (stereo unspecified) | -2% | -5.4% | -4% | -13% | 1% | 0% | -68% | ?
CCCCN(CC)C(=O)CSc1nc2c(sc3ccccc32)c(=O)n1CCc1ccccc1 | -7% | 3.6% | . | 2%[46.1 µM] | . | -18% | . | .
O=[N+]([O-])c1c(NCCO)cc(N2CCC3(CC2)OCCO3)c2nonc12 | -3% | -14% | 3% | 1% | 6% | -13% | 5% | 3%

From PubChem

Rows are unselected. Share with any hit: about 4.7%.
